High-throughput results: PubChem, Southern Research Specialized Biocontainment Screening Center
Mtb bLac sens: beta-lactam sensitization of Mtb H37Rv; inhibition, % at 25 µM; actives 0.27% (n = 330,000); M. tuberculosis H37Rv growth with meropenem, percent inhibition; hits of this screen are not shown here; AID 434955;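 active means about 74% or more and at least 40 points above the plate without the antibiotic, then above 30% in a dose series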;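 further: growth measured after seven days incubation then overnight dye step; 0% = bacteria only wells and 100% = bacteria with antibiotic; twin plates without the antibiotic show which effects depend on it; some results filed as inactive read as strong as hits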
The depositor's hits bear a star. The list is partial; count on the stated rates, not on these rows.

Structure | Mtb bLac sens
Nc1c(N(CCCO)C(=O)C2CCCCC2)c(=O)[nH]c(=O)n1Cc1ccccc1 | -1
CCOC(=O)c1ccc(S(=O)(=O)N2CCC(C(=O)NCc3ccccc3OC)CC2)cc1 | 1
COc1ccc(C(OCC(O)CN2CCC(O)CC2)c2ccc(OC)cc2)cc1 (centres undefined) | -12
Cn1c(CNC(=O)c2ccc(Cl)cc2)nnc1SCC(=O)NC1=NCCS1 | -5
COc1ccc(S(=O)(=O)N2CCOCC2)cc1NC(=O)COc1ccccc1OC | -3
N#Cc1ccc(OCC(=O)N2CCN(S(=O)(=O)c3ccc(Cl)s3)CC2)cc1 | -3
CC(C)(C)OC(=O)NCCCCCNC(=O)c1[nH]cnc1C(=O)N[C@@H](Cc1ccccc1)C(=O)OC(C)(C)C | 6
Oc1ccc(C23CCCC2C2(CCCC2)c2ccc(O)cc2O3)c(O)c1 (centres undefined) | -4
Cc1ccc(NC(=O)CN(C)C(=O)COc2cccc3ccc(C)nc23)cc1 | -6
CC1CCCCC1NC(=O)COC(=O)CN1C(=O)c2ccccc2C1=O (centres undefined) | 1
COc1cccc(CC(=O)OCC(=O)NCCc2ccc(F)cc2)c1 | -5
O=C(N/N=C/c1cc(O)ccc1Br)c1cccnc1 | 4
COc1cc(Cl)c(C)cc1NC(=O)CC1SC(N2CCOCC2)=NC1=O (centres undefined) | 1
CN(C(=O)COC(=O)Cc1c(Cl)cccc1Cl)C1CCS(=O)(=O)C1 (centres undefined) | -6
CCCCN1C(=N)N([C@@H](C)CN2CCC[C@H]2CN2C(N)=NC[C@@H]2Cc2ccccc2)C[C@H]1Cc1ccccc1 | 86
CCOc1ccc(NC(=S)N2CCC(NC(=O)c3ccco3)CC2)cc1 | -24
Cc1ccc(S(=O)(=O)Nc2ccc(Cl)cn2)cc1C | -8
Cc1onc(-c2ccccc2)c1C(=O)NCCCc1ccccc1 | -11
COc1ccc(C(CNC(=O)c2oc3ccccc3c2C)N2CCCC2)cc1 (centres undefined) | -5
OCCOCCO | -2
Cc1ccc2c(c1)-n1c(nc3ccc(Cl)cc3c1=O)C(CC(C)C)NC2=O (centres undefined) | 5
CCN(CC(=O)Nc1ccc(OC)cc1)C(=O)CSCc1c(C)noc1C | -1
CC(C)C(NC(=O)c1ccccc1F)C(=O)NCC(c1ccco1)N1CCCCC1 (centres undefined) | -5
COc1ccc(C)cc1S(=O)(=O)N1CCN(c2ccccc2)CC1 | -7
COc1ccccc1C(=O)NCC(=O)NNC(=O)c1cccs1 | -2
Cc1ccc(CNC(=O)CSc2nnc3n2CCCCC3)cc1 | 5
C[C@]12CC[C@@H](O)CC1=CCC1C2CC[C@@]2(C)C1CC[C@@H]2N (some centres undefined) | 2
CC1CCCC(NC(=O)CN(C)CC(=O)Nc2ccc(F)cc2)C1C (centres undefined) | 0
COCCN(CC(=O)Nc1cccc(C)c1C)C(=O)c1cc2c(s1)CCC2 | 1
CC(=O)NC(C)c1ccc(C(=O)CSc2nnc(C3CC3)n2C2CC2)cc1 (centres undefined) | -2
Cc1n[nH]c(=O)c2c(NC(=O)CSc3nc4ccccc4c(=O)n3-c3ccc(OC(F)F)cc3)oc(C)c12 | -4
COC(=O)[C@]1(Cc2ccccc2)N[C@H](CN(C)C(=O)c2ccccc2)[C@@H]2C(=O)N(C)C(=O)[C@@H]21 | -7
O=[N+]([O-])c1cc(S(=O)(=O)N2CCCC2)ccc1OCCOc1ccccc1 | -8
CCOc1ccc(NC(=O)c2ccc3c(c2)OCCO3)cc1S(=O)(=O)N(CC)CC | 1
Cc1ccc(C(=O)Nc2ccccc2C(=O)NCc2ccco2)cc1 | -5
CC1(C)C(C=C(Cl)Cl)C1C(=O)OCc1cccc(Oc2ccccc2)c1 (centres undefined) | 0
CN(CC(=O)Nc1cccc(F)c1)C(=O)c1cccc2ccccc12 | -2
COC(=O)c1ccc(C)cc1 | -1
COc1ccccc1N1CCN(C(=O)CCNC(=O)Cn2ccc3ccccc3c2=O)CC1 | 14
CCN(c1ccccc1)S(=O)(=O)c1ccc(C(=O)Nc2ccccc2OC)cc1 | 1
Cc1ccc(NC(=O)CNC(=O)c2ccc(C(C)(C)C)cc2)cc1S(=O)(=O)N1CCOCC1 | -1
COc1ccc(NC(=S)NC(=NS(=O)(=O)c2ccc(Cl)cc2)c2ccccc2)cc1 | 6
COc1ccc(S(=O)(=O)N2CCCCC2)cc1NS(=O)(=O)c1ccc(CNC(C)=O)cc1 | -10
COC(=O)c1cc(COC(=O)COc2ccc(C)c(C)c2)oc1C | 7
CCN(CC(=O)Nc1c(F)cccc1F)C(=O)CC1CCCCC1 | 4
Cc1ccc(S(=O)(=O)NCC(=O)OCC(=O)NC2CCCCC2)cc1 | 0
C=CC[C@@H](CC(=O)N(CCO)Cc1ccccc1)C(=O)N[C@H](COC(=O)[C@@H](CC=C)Cc1ccc(F)cc1)Cc1ccccc1 | -10
Cn1cccc1C(=O)NNC(=O)COc1ccccc1Cl | -4

4 of the compounds above, as labelled records:
COc1ccccc1N1CCN(C(=O)CCNC(=O)Cn2ccc3ccccc3c2=O)CC1
  Mtb bLac sens: 14

CCN(c1ccccc1)S(=O)(=O)c1ccc(C(=O)Nc2ccccc2OC)cc1
  Mtb bLac sens: 1

Cc1ccc(NC(=O)CNC(=O)c2ccc(C(C)(C)C)cc2)cc1S(=O)(=O)N1CCOCC1
  Mtb bLac sens: -1

COc1ccc(NC(=S)NC(=NS(=O)(=O)c2ccc(Cl)cc2)c2ccccc2)cc1
  Mtb bLac sens: 6

Next part:
Structure | Mtb bLac sens
O=C(COC(=O)c1ccc(Cl)nc1)NCCc1ccc(F)cc1 | 2
O=C(CN1C(=O)NC2(CCc3ccccc32)C1=O)Nc1ccccc1C(F)(F)F (centres undefined) | -5
O=C(c1ccc(Cl)c(S(=O)(=O)N2CCOCC2)c1)N1CCN(c2ccccn2)CC1 | -2
CCOC(=O)c1c(C)[nH]c(C(=O)OCC(=O)NCc2ccccc2)c1C | -3
N#Cc1ccccc1S(=O)(=O)N1CCN(C(=O)C2COc3ccccc3O2)CC1 (centres undefined) | -2
Cc1ccc(C(C)C)c(OCC(=O)OCC(=O)NC2CC2)c1 | 72
CC(C)Cn1cnc2c1c(=O)n(CC(=O)NC(=O)NC(C)(C)C)c(=O)n2Cc1ccccc1 | 10
COc1cccc(C(=O)NCc2ccco2)c1 | -9
C[C@H](CO)N1C[C@H](C)[C@@H](CN(C)S(=O)(=O)c2ccc(F)cc2)Oc2ccc(NC(=O)c3ccncc3)cc2C1=O | 1
O=C1C=CN2CCCC2CC1 (centres undefined) | -8
O=C(c1ccc2ccccc2c1)N1CCc2ccccc21 | -2
CC(C)c1ccc(NC(=O)COC(=O)C2CC3C=CC2C3)cc1 (centres undefined) | -9
C[C@H](CO)N1C[C@H](C)[C@@H](CN(C)S(=O)(=O)c2cccs2)Oc2c(NS(=O)(=O)c3cn(C)cn3)cccc2C1=O | 4
Cc1ccc(NC(=O)Cc2nc(COC(=O)C(C)NS(=O)(=O)c3ccc(C)cc3)cs2)cc1 (centres undefined) | 0
CC(C)c1ccc(C(=O)COC(=O)C(O)c2ccccc2)cc1 (centres undefined) | 5
Cc1cccc(N2CCN(C(=O)c3ccc(S(=O)(=O)N(C)c4ccccc4)cc3)CC2)c1C | -2
Cc1ccc(CNC(=O)c2cc(C3CC3)nc3c2cnn3C(C)C)cc1 | -6
COc1cc2c(cc1OC)C(=O)N1[C@H]3c4cc(C)ccc4OC[C@@H]3[C@H](c3ccccc3)[C@]1(C)C(=O)N2 | -2
CC(NC(=O)CNC(=O)c1ccccc1F)c1ccc(-n2ccnc2)cc1 (centres undefined) | -3
O=C(N/N=C/c1cc([N+](=O)[O-])cc([N+](=O)[O-])c1O)C(O)(c1ccccc1)c1ccccc1 | -2
C[C@@H]1CN([C@@H](C)CO)C(=O)c2cc(NS(=O)(=O)c3cccs3)ccc2O[C@H]1CN(C)Cc1ccc(C(F)(F)F)cc1 | -5
Cc1cc(Cl)ccc1NC(=O)CSc1n[nH]c(N)n1 | -3
O=C(CCOc1ccccc1)N1CCN(S(=O)(=O)c2ccccc2F)CC1 | -9
CC(C)Cn1c(SCC(=O)N2CCOCC2)nc2ccccc2c1=O | 2
COc1ccc(OC)c(NC(=O)COc2ccc3c(c2)CCC3)c1 | -5
O=C(NNC(=O)c1nc2ccccc2[nH]1)OCc1ccccc1 | 44
CCCCCCSc1ccc(-c2nc3ccc(Cl)cn3c2NC2CCCCC2)cc1 | 0
CCCCC1CCC(C(=O)Nc2ccc(N3CCOCC3)cc2N2CCOCC2)CC1 (centres undefined) | 82
COCCn1c(Cc2ccccc2)nnc1SCC(=O)N1CCCC1=O | -4
CN(C(=O)c1ccc(NC(=O)Cc2cccc(NC(=O)C3CCN(C(=O)c4ccccc4)CC3)c2)cc1)C1CCCC1 | 53
Cc1ccc(S(=O)(=O)Nc2ccccc2F)cc1C(=O)N1CCN(c2ccccc2O)CC1 | -5
CCCCc1nnc(NC(=O)CCS(=O)(=O)c2ccc(C)cc2)s1 | 17
Cc1ccc(NC(=O)CCC(=O)N2CCN(S(=O)(=O)c3ccc(C)cc3)CC2)cc1 | 8
COc1ccc(C(=O)OCC(=O)Nc2ccc(N3CCOCC3)cc2)cc1 | 3
Cc1ccc(NC(=O)c2cccnc2)c([N+](=O)[O-])c1 | -3
COc1ccc(NC(C)=O)cc1NC(=O)c1cccc(S(=O)(=O)N2CCc3ccccc32)c1 | -2
COc1cc(CC(=O)OCC(=O)NCCc2ccc(S(N)(=O)=O)cc2)cc(OC)c1OC | -2
O=C(C[C@H]1C/C=C\C[C@@H](Cc2ccc(F)cc2)C(=O)O[C@@H](c2ccccc2)CNC1=O)N[C@@H](CO)Cc1ccccc1 | -9
COc1ccc(NC(=O)COC(=O)C2CC(=O)N(CCc3ccc(OC)c(OC)c3)C2)cc1Cl (centres undefined) | 2
N#Cc1ccc(CN2CCN(C(=O)c3cccc(S(=O)(=O)N4CCCCCC4)c3)CC2)cc1 | -1
Cc1ccc(S(=O)(=O)N2CCN(C(=O)COC(=O)/C=C/c3ccccc3F)CC2)c(C)c1 | 2
C=C1/C=C(\C)[C@](C)(O)C[C@H](O)CC(=O)[C@H](O)[C@@H](O)[C@H](C)C[C@H](C)OC(=O)/C(C)=C/CC/C=C/[C@@H]2O[C@H]2C[C@H](C)C1 | 13
O=C(/C=C/c1c(F)cccc1Cl)Nc1cccnc1 | 5
CCCCn1c(N)c(N(CC(C)C)C(=O)C(C)SCc2nc3sc(C)c(C)c3c(=O)[nH]2)c(=O)[nH]c1=O (centres undefined) | 8
COc1ccc(CN2CC(=O)N3[C@H]4c5ccccc5OC[C@@H]4[C@H](c4ccccc4)[C@]3(C)C2=O)cc1 | 49
CCc1cccc(NC(=O)C2CC2c2ccccc2)c1 (centres undefined) | 0
CCOC(=O)[C@H]1[C@H]2COc3ccc(C)cc3[C@@H]2N2C(=O)[C@@H](C)NC(=O)[C@@]12C | -1
CC(NC(=O)c1c(O)c2ccccc2n(C)c1=O)c1ccccc1 (centres undefined) | -6

2 records picked at random from those above, as already listed:
Structure | Mtb bLac sens
COc1cc(CC(=O)OCC(=O)NCCc2ccc(S(N)(=O)=O)cc2)cc(OC)c1OC | -2
CC(NC(=O)c1c(O)c2ccccc2n(C)c1=O)c1ccccc1 (centres undefined) | -6

Quoted from the listing.
COc1ccc(CN2CC(=O)N3[C@H]4c5ccccc5OC[C@@H]4[C@H](c4ccccc4)[C@]3(C)C2=O)cc1 | Mtb bLac sens = 49
Cc1ccc(S(=O)(=O)N2CCN(C(=O)COC(=O)/C=C/c3ccccc3F)CC2)c(C)c1 | Mtb bLac sens = 2
COc1cc(CC(=O)OCC(=O)NCCc2ccc(S(N)(=O)=O)cc2)cc(OC)c1OC | Mtb bLac sens = -2
O=C(C[C@H]1C/C=C\C[C@@H](Cc2ccc(F)cc2)C(=O)O[C@@H](c2ccccc2)CNC1=O)N[C@@H](CO)Cc1ccccc1 | Mtb bLac sens = -9
N#Cc1ccc(CN2CCN(C(=O)c3cccc(S(=O)(=O)N4CCCCCC4)c3)CC2)cc1 | Mtb bLac sens = -1

The list continues:
Structure | Mtb bLac sens
COC(=O)[C@]1(C)N[C@H](CN(C)C(C)=O)[C@@H]2C(=O)N(Cc3ccccc3)C(=O)[C@@H]21 | 3
CC(=O)NCc1ccc(C(=O)COC(=O)COc2ccccc2)s1 | -6
COc1cccc(-c2nn(-c3ccc(C)cc3)cc2C(=O)N2CCN(C3CCS(=O)(=O)C3)CC2)c1 (centres undefined) | 2
O=C(NNC(=O)c1ccccc1[N+](=O)[O-])c1csc(N2CCOCC2)n1 | 1
O=C(O)CC(NS(=O)(=O)c1ccc2c(c1)OCCO2)c1ccccc1[N+](=O)[O-] (centres undefined) | -5
COC(=O)c1ccn(CSc2cc(Cl)ccc2Cl)n1 | -12
COc1ccc(NC(=O)c2cc3ccccc3o2)cn1 | 0
N#Cc1ccccc1OCC(=O)OCC(=O)NC1CCCCCC1 | -5
O=C(COc1cccc(C(F)(F)F)c1)NNC(=O)Cc1ccc(S(=O)(=O)N2CCOCC2)s1 | -2
Cc1ccc(NC(=O)CSc2nnc(-c3ccncc3)s2)cc1 | 6
CC(=O)c1c(C)[nH]c(C(=O)OC(C)C(=O)Nc2ccc(C)c(S(=O)(=O)N3CCOCC3)c2)c1C (centres undefined) | -3
Cc1ccc2nc(-c3ccc(O)cc3)oc2c1 | 2
Cn1cncc1C#Cc1ccc2cc(CCCO)oc(=O)c2c1 | 0
CCOC(=O)[C@H]1[C@H]2COc3ccc(OC)cc3[C@@H]2N2C(=O)[C@H](C)NC(=O)[C@@]12C | -6
C[C@H](CO)N1C[C@H](C)[C@@H](CN(C)C(=O)Nc2ccc(C(F)(F)F)cc2)Oc2c(NS(=O)(=O)c3cn(C)cn3)cccc2C1=O | 0
CC(=O)Nc1ccc(NC(=O)C(C)OC(=O)C2CCCCC2)cc1 (centres undefined) | -4
